Choline anaer gr = growth inhibitors of anaerobic choline-fed gram-negatives, minimal medium, absorbance. Gram-negative bacterium anaerobic choline minimal medium; hits give low values; many inactives read as strong as hits in the columns shown. actives 0.2% (n = 55,000). calls only;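 active = growth z-score on choline under -2 at 7 or 20 h with little or no fall on glycerol, limits in tiers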;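 also: stock transfer was 300 nL into about 50 µL; the organism is E. coli; final concentration not given here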
Choline anaer gr early = further read-out of Choline anaer gr, marked with its call; z-score; measured here: choline growth z-score, timepoint 1;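 score of optical density at 7 h as mean of two plates; lower means less growth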
The depositor's hits bear a star; i = inactive; & = joins results of further samples. Some of the compounds tested (hit frequency here may not be typical).

Fields – Choline anaer gr | Choline anaer gr early
Cc1noc(C)c1S(=O)(=O)N1CCCC1c1cc(C(C)C)on1 (stereo unspecified)
→ i | 0.11
Cc1ccc(S(=O)(=O)NCCn2c(-c3ccc(F)cc3)nc3cccnc32)cc1
→ i | -0.22
CC(C)(C)C(=O)Nc1nc(CC(=O)NC2CC2)cs1
→ i | -0.35
CN1C(=O)Cc2cc(S(=O)(=O)N(C)CCc3noc(-c4ccccc4Cl)n3)ccc21
→ i | -1.87
Cc1ccc(C(=O)N(Cc2ccc(N(C)C)cc2)CC2CCCO2)cc1 (stereo unspecified)
→ i | 0.52
O=c1c2sccc2n2c(SCc3ccccc3Cl)nnc2n1CC1CCCO1 (stereo unspecified)
→ i | -0.56
Cc1nn(-c2nc3ccccc3[nH]2)c2c1C(c1ccccc1Br)CC(=O)N2 (stereo unspecified)
→ i | 1.23
COc1c(C)cnc2c1c(=O)n(CC(=O)N1CCc3ccccc31)c(=O)n2C
→ i | -0.96
O=C(C1CCN(c2nc3ccccc3n3cccc23)CC1)N1CCN(c2ccccn2)CC1
→ i | 0.56
CC1CC(=O)Nc2ccccc2N1C(=O)CNCc1ccccc1 (stereo unspecified)
→ i | 0.97
Cc1nn(C(C)C)c(C)c1S(=O)(=O)N1CCN(C(=O)C2CC2)CC1
→ i | -1.61
COc1cccc(N2CCN(C(=O)Cn3ccc4c(SCc5ccc(F)cc5)nccc43)CC2)c1
→ i | -1.36
CCc1ccc(NC(=O)Cn2cc(-c3nnc(CN4CCCCC4)o3)c3ccccc32)cc1
→ i | 0.36
CCC(=O)NC(C)c1nc(-c2ccc(C)cc2)no1 (stereo unspecified)
→ i | -0.47
CCOC(=O)c1nc2cc(C)c(C)cc2nc1NCc1ccc2c(c1)OCO2
→ i | 0.23
CCOC(=O)c1nc(Nc2ccc(N3CCC(C)CC3)cc2)c2ccccc2n1
→ i | -1.03
C=CCc1ccc(OCCCn2c(CN3CCOCC3)nc3ccccc32)c(OC)c1
→ i | -2.49
CCOC(=O)c1nn(-c2ccccc2)c(=O)c2c(NC(=O)C3c4ccccc4Oc4ccccc43)scc12
→ i | -2.12
CCCS(=O)(=O)N1CCCC1c1c(C)noc1CC (stereo unspecified)
→ i | 0.36
Cc1ccc(-n2nc(CO)c(C(=O)NCc3ccccn3)n2)cc1
→ i | 0.72

Some of these compounds in order of molar mass, lowest first.
Fields – Choline anaer gr | Choline anaer gr early
CC(C)(C)C(=O)Nc1nc(CC(=O)NC2CC2)cs1
→ i | -0.35
Cc1ccc(-n2nc(CO)c(C(=O)NCc3ccccn3)n2)cc1
→ i | 0.72
CCOC(=O)c1nc(Nc2ccc(N3CCC(C)CC3)cc2)c2ccccc2n1
→ i | -1.03
Cc1ccc(S(=O)(=O)NCCn2c(-c3ccc(F)cc3)nc3cccnc32)cc1
→ i | -0.22
Cc1nn(-c2nc3ccccc3[nH]2)c2c1C(c1ccccc1Br)CC(=O)N2 (stereo unspecified)
→ i | 1.23
O=c1c2sccc2n2c(SCc3ccccc3Cl)nnc2n1CC1CCCO1 (stereo unspecified)
→ i | -0.56

(next part)
Fields – Choline anaer gr | Choline anaer gr early
O=C(C1CCN(c2ncnc3c2oc2ccccc23)CC1)N1CCN(c2ccccc2Cl)CC1
→ i | 0.53
CC1CCN(C(=O)c2cc3n(n2)CC(C)(C(=O)NC2CCCC2)N(C)C3=O)CC1 (stereo unspecified)
→ i | -1.69
O=C(CCc1nc2sc3c(c2c(=O)[nH]1)CCCCC3)N1CCN(c2cccc(Cl)c2)CC1
→ i | 0.51
CC(=O)N(c1ccc(C)c(Cl)c1)C1C=CS(=O)(=O)C1 (stereo unspecified)
→ i | -0.15
O=C(NCc1c(-c2ccc(F)cc2)nc2n1CCS2)C1CCCC1
→ i | -1.62
CC1CN(C(=O)C2CC2)c2ccccc2NC1=O (stereo unspecified)
→ i | -2.24
Nc1nc2c(ncn2CCC(CO)CO)c(=O)[nH]1
→ i | 0.8&0&0.84&0.74
C=CCOc1ccc(C2CC(=O)Nc3c2c(C)nn3-c2ccc3nncn3n2)cc1 (stereo unspecified)
→ i | 0.78
Cc1ccccc1C1CCCN1C(=O)c1cnn2c(C(F)F)cc(C3CC3)nc12 (stereo unspecified)
→ i | -0.16
CN(C)c1ccc(C(CNC(=O)c2ccc3c(c2)OCO3)N2CCN(c3ccc(F)cc3)CC2)cc1 (stereo unspecified)
→ i | 0.88
Cc1nnc(-c2c(C)[nH]c(C)c2S(=O)(=O)NCCN2CCCCC2C)o1 (stereo unspecified)
→ i | -1.01
CCOc1c(Nc2ccc(Cl)cc2)c(=O)c1=O
→ i | -2.26
Cc1nnc(SCC(=O)Nc2nc3ccccc3s2)[nH]c1=O
→ i | -1.72
O=S(=O)(Nc1ccc(Cn2cnc(-c3nc(-c4ccc(F)cc4)no3)c2)cc1)c1ccccc1
→ i | -0.35
COc1ccc(-c2nc(SCC(=O)Oc3ccc(C(C)(C)C)cc3)n3[nH]c(=O)cc3n2)cc1
→ i | -0.61
COc1ccc(S(N)(=O)=O)cc1-c1noc(C(C)(C)C)n1
→ i | -0.8
Cc1cccc2cc3c(nc12)N(C(=O)CC(C)C)CC3
→ i | 1.11
O=C(CSc1nnc2n(Cc3ccco3)c(=O)c3sccc3n12)Nc1ccc2c(c1)CCC2
→ i | -1.81
O=C1CN(Cc2ccccc2F)S(=O)(=O)c2ccccc2N1Cc1cccc(F)c1
→ i | -0.32
O=S(=O)(NCc1cn2ccsc2n1)c1ccc(Cl)cc1
→ i | 0.49
COc1cccc(C(=O)N2CC(=O)Nc3ccccc32)c1
→ i | -1.43
CCn1c(C)c(-c2nc(C3CC3)no2)c(S(=O)(=O)N2CCOCC2)c1C
→ i | 0.82
C#CCSc1c(CCCC)cnc2c1c(=O)n(C)c(=O)n2C
→ i | 0.53
O=C(c1ccc(-c2nc(-c3ccc(F)cc3)no2)cc1)N1CCOCC1
→ i | -0.04
c1nc2c(c(N3CCCCC3)n1)CCC2
→ i | -2.92
Cc1nc2nc(Cc3cccc(F)c3)nn2c(NCc2ccc3c(c2)OCO3)c1C
→ i | -0.34
C=CCNC(=O)C1CCCN1C(=O)c1ccc(NS(=O)(=O)c2ccc3c(c2)CCCC3)cc1 (stereo unspecified)
→ i | -0.48
O=c1c2c(nc3nc(CNc4ccc(F)cc4)[nH]n13)CCC2
→ i | -0.46
Cc1ccccc1NC(=O)CN1N=C(c2ccccc2)c2ccccc2S1(=O)=O
→ i | 0.48
O=C(NC1CC1)C1(c2cccc(C(F)(F)F)c2)CC1
→ i | -1.03
CCOCN(C(=O)Cn1c(COC)nc2ccccc21)c1c(C)cccc1CC
→ i | 0.27
O=c1[nH]c(SCc2ccc(Cl)cc2)nc2c(-c3ccccc3)c[nH]c12
→ i | 0.84
COc1ccc(Nc2nc(C)c(NC(C)=O)c(Nc3ccc(OC)cc3)n2)cc1
→ i | -1.48
Clc1cccc(-c2nnc3sc(-c4ccc5ccccc5n4)nn23)c1
→ i | 0.47
COc1cccc(CN2CCCC2c2cc(C(C)C)on2)c1O (stereo unspecified)
→ i | 0.33
O=C(Nc1ccccc1)c1ccc(S(=O)(=O)c2ccc(Br)cc2)nc1
→ i | 0.57
COC(=O)c1cc(S(=O)(=O)N(C)CC(=O)Nc2cccc(Cl)c2)cn1C
→ i | -1.74
Cn1nnc2cc(-c3noc(-c4cn(-c5ccccc5)nc4-c4ccccc4)n3)ccc21
→ i | -2.33
Cc1ccc(N2CC(C(=O)N3CCN(c4ncnc5c4nnn5-c4ccc(C)cc4)CC3)CC2=O)cc1 (stereo unspecified)
→ i | -1.6
COc1ccc(C2CC(c3ccccc3)=NN2c2nc(C)cs2)cc1OC (stereo unspecified)
→ i | 1.28
O=S(=O)(c1ccc(C2CCCCC2)cc1)N1CCc2nc(N3CCCCC3)ncc2C1
→ i | -0.98
CC(C)NC(=O)CCn1c(=O)c2ccccc2n2c(=O)n(Cc3c(F)cccc3Cl)nc12
→ i | 0.04
Cc1ccc(C(=O)N2CCN(CCc3ccncc3)CC2)cc1
→ i | -1.16
Nc1nc2c(c(=O)[nH]1)C(c1ccccc1Cl)CC(=O)N2 (stereo unspecified)
→ i | 1.83
CCc1csc(C2CCCN(C(=O)NC(C)(C)C)C2)n1 (stereo unspecified)
→ i | 1.05
CCN(CCN(C)C)c1ncc(C(=O)O)cc1NS(=O)(=O)c1ccc(C(C)C)cc1
→ i | -0.19
Cc1cc2nc(CSc3nnc(NC(=O)COc4ccccc4)s3)cc(=O)n2o1
→ i | -0.3
CCc1ccc(S(=O)(=O)N2CCCC2c2cc(CC)no2)cc1 (stereo unspecified)
→ i | 0.02
CC(C)NC(=O)Nc1cccc(-c2noc(C3(c4ccccc4)CC3)n2)c1
→ i | -0.71
CN(C)S(=O)(=O)NCc1nc2cccnc2n1C1CCCCC1
→ i | -0.55
O=C(NCc1ccccc1)c1ccccc1CN1C(=O)C2CCCN2C(=O)c2ccccc21 (stereo unspecified)
→ i | 0.24
O=c1[nH]c(SCc2ccc(Cl)cc2)nc2c1CN(Cc1ccc(F)cc1)CC2
→ i | -0.69
CN1C(=O)c2cc(C(=O)NC3CCCCC3)nn2CC1(C)C(=O)NC1CCCCC1 (stereo unspecified)
→ i | -0.19
CCc1cc(C(Nc2nc(C)cc(C)n2)c2ccc(F)cc2)c(NC(=O)c2ccccc2)s1 (stereo unspecified)
→ i | 1.83
COCCCNC1=NCCNC12CCN(S(=O)(=O)c1ccc(F)cc1)CC2
→ i | 0.44
COc1ccc2[nH]cc(CCNc3ccc(S(=O)(=O)C(C)(C)C)nn3)c2c1
→ i | -0.15
CCOC(=O)C1=C(C)NC(C)=C(C(=O)OC)C1c1cccc(Cl)c1Cl (stereo unspecified)
→ i | 0.85&0.23&0.28&0.93
Cn1nnc2c(Nc3ccc(F)cc3F)ncnc21
→ i | -0.71
O=C(Cn1c(=O)[nH]c2c(-c3ccc(F)cc3)c[nH]c2c1=O)NCc1cccnc1
→ i | -0.07
CCn1ccc(-c2nc(-c3oc4ccc(OC)cc4c3C)no2)n1
→ i | 1.52

More entries.
Fields – Choline anaer gr | Choline anaer gr early
O=C(Nc1cnc2oc(-c3ccccc3)nn2c1=O)c1ccc(F)cc1
→ i | 0.21
O=C(NCCn1c(-c2ccncc2)nc2cccnc21)Nc1ccc(Br)cc1
→ i | -1.35
CCCS(=O)(=O)N1CCCN(C2=NS(=O)(=O)C(c3ccc(F)cc3)=C2C)CC1
→ i | -0.04
C=CCOc1ccc(C2CC(=O)Nc3c2c(C)nn3-c2ccc3nnc(C)n3n2)cc1OCC (stereo unspecified)
→ i | -0.69
Cn1c(=O)c2c(-c3ccc(Br)cc3)n3c(c2n(C)c1=O)COCC3
→ i | -1.44
Cc1ccc(-c2nc3nc(C)cc(Nc4ccc(Br)c(C)c4)n3n2)cc1
→ i | 0.34
Cc1cc(C)c(NC(=O)c2cc3c([nH]c2=O)CCCC3=O)c(C)c1
→ i | 0.47
Fc1ccc(Cn2c(SCc3cccc(Cl)c3)nc3ccncc32)cc1
→ i | -1
CC(C)c1cc(C2CCCN2Cc2cc(Cl)ccc2O)on1 (stereo unspecified)
→ i | -1.76
CC(C)c1cc(C2CCCN2C(=O)Nc2ccccc2Br)no1 (stereo unspecified)
→ i | -0.13
CC(=O)n1ccc2ccc(C(=O)CN3CCN(c4cc(Cl)ccc4C)CC3)cc21
→ i | -1.03
Cc1cccc(N2CCN(C(=O)c3sc4ncccc4c3-n3cccc3)CC2)c1
→ i | 0.06
Cc1ccc(Nc2cc(C(=O)O)nc3ccc(C)cc23)cc1
→ i | -0.44
Cc1nn(-c2cc(N3CCCCC3)ncn2)c(C)c1CCC(=O)N1CCOCC1
→ i | -0.75
CCc1ccc(NS(=O)(=O)c2cc(-c3ccc(=O)n(-c4c(C)noc4C)n3)ccc2C)cc1
→ i | 1.65
Cc1[nH]c(C(=O)N2CCC(CC(=O)NC(C)c3ccccc3)CC2)c(C)c1C(=O)OC(C)C (stereo unspecified)
→ i | 0.6
Fc1cccc(-c2nn3c(-c4ccccn4)nnc3s2)c1
→ i | -0.81
COc1ccc(NC(=O)C2CCCN(c3nc4cccnc4s3)C2)cc1 (stereo unspecified)
→ i | 0.08
O=c1[nH]c2ccc(S(=O)(=O)NCc3cccn3Cc3ccccc3F)cc2o1
→ i | 0.16
O=C(c1cccc(-c2noc(C3CCC3)n2)c1)N1CCc2ccccc21
→ i | 2.62

4 entries picked at random from the list so far:
Fields – Choline anaer gr | Choline anaer gr early
CC(C)c1cc(C2CCCN2C(=O)Nc2ccccc2Br)no1 (stereo unspecified)
→ i | -0.13
CCc1ccc(NS(=O)(=O)c2cc(-c3ccc(=O)n(-c4c(C)noc4C)n3)ccc2C)cc1
→ i | 1.65
O=C(c1cccc(-c2noc(C3CCC3)n2)c1)N1CCc2ccccc21
→ i | 2.62
O=c1[nH]c2ccc(S(=O)(=O)NCc3cccn3Cc3ccccc3F)cc2o1
→ i | 0.16

More compounds follow:
Fields – Choline anaer gr | Choline anaer gr early
Cc1ccc(-c2csc(SCc3noc(CCC(=O)Nc4nccs4)n3)n2)cc1
→ i | 0.36
CCn1cnc2c(-c3ccc(OC)cc3)csc2c1=O
→ i | -0.59
CC(C)(CO)NCc1ccc(-c2ccc(Cl)cc2)o1
→ i | -0.8
c1ccc(C2CN3CCSC3=N2)cc1 (stereo unspecified)
→ i | 0.26&-0.34&0.23
CC(C)CN[C@H]1CS(=O)(=O)C[C@@H]1S(=O)(=O)c1ccc(F)cc1
→ i | 0.46
CC(C)CC(=O)Nc1cc2c(cc1SC1CCCCC1)n(C)c(=O)n2C
→ i | -1.1
CCCCC[C@@](C)(O)/C=C/[C@H]1[C@H](O)CC(=O)[C@@H]1C/C=C\CCCC(=O)O
→ i | 1
Cc1ccc(N2C(=O)CN(Cc3ccccc3Cl)[C@H]3CS(=O)(=O)C[C@H]32)cc1
→ i | 0.52
Nc1nc2c(c(=O)[nH]1)C(c1ccccc1Br)CC(=O)N2 (stereo unspecified)
→ i | 1.24

Bioassay records as filed in PubChem.
